Screening results from PubChem BioAssay.
GIRK2 act – opens human GIRK2 potassium channels | HEK293-GIRK2 thallium flux, Thallos fluorescence | calls only for hits at 25 µM | actives 0.05% (n = 63,000);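 active = among the strongest 0.2% of first-round signals and kept after retests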;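 also: first round at about 10 µM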
Target sequence (P48051 whole entry, looked up): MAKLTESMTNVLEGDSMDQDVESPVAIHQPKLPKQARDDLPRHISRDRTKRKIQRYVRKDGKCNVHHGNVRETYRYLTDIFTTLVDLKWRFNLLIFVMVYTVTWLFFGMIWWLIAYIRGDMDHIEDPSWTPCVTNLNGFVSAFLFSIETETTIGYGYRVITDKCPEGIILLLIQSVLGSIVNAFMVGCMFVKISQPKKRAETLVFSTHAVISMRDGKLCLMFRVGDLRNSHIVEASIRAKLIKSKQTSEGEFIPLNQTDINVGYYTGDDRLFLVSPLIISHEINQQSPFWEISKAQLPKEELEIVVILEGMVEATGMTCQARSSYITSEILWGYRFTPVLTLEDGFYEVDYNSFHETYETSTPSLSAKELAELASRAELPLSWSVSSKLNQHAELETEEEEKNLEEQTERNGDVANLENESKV
Calls only; i = inactive.

nr	molecule	GIRK2 act
1	COc1ccc(C2C3=C(Nc4nnnn42)c2ccccc2OC3c2ccncc2)cc1 (centres undefined)	i
2	CCOC(=O)c1nc(Cn2cc(-c3nc(-c4ccsc4)no3)ccc2=O)no1	i
3	Cc1nn(-c2ccccc2)c2ncc(C(=O)Nc3cccc(Cl)c3)c(Cl)c12	i
4	O=C(CSc1ccc(F)cc1)N(CCc1cccs1)Cc1ccco1	i
5	O=S(=O)(c1cccs1)N1CCN(CC(O)c2ccco2)CC1 (centres undefined)	i
6	O=C(CSc1nc(-c2ccccc2)cs1)NCc1ccccc1	i
7	CCc1cc(CC)n(-c2nc3c(c(=O)n(CC(=O)C(C)(C)C)c(=O)n3C)n2C(C)C)n1	i
8	CC(C)S(=O)(=O)c1cccc(-c2nnc(NC(=O)Cn3c(=O)oc4ccccc43)o2)c1	i
9	CC(C)N(Cc1ccccc1)C(=O)C(=O)c1cn(CC(=O)N2CCOCC2)c2ccccc12	i
10	Cc1cccc(NC(=O)C2CCN(c3cnc4ccccc4n3)CC2)c1C	i
11	CC(C)(Oc1ccc(Cl)cc1)C(=O)Nc1cc(C2CC2)nn1-c1nc2c(c(=O)[nH]1)CCCC2	i
12	COc1ccccc1S(=O)(=O)NCc1nc(C)no1	i
13	COc1ccc(Cl)cc1-n1nnc(-c2nc(-c3ccccc3F)no2)c1C	i
14	CCOc1ccc(C(=O)CN2C(=O)c3ccccc3OC(C)C2=O)cc1 (centres undefined)	i
15	CCCCc1ccc(NC(=O)c2cc3c(=O)n4ccccc4nc3n2CCCOC)cc1	i

Next part; it opens with the three that closed the last part.
nr	molecule	GIRK2 act
13	COc1ccc(Cl)cc1-n1nnc(-c2nc(-c3ccccc3F)no2)c1C	i
14	CCOc1ccc(C(=O)CN2C(=O)c3ccccc3OC(C)C2=O)cc1 (centres undefined)	i
15	CCCCc1ccc(NC(=O)c2cc3c(=O)n4ccccc4nc3n2CCCOC)cc1	i
16	COc1cccc(-c2c(C#N)c(N)nc3c2CN(Cc2ccccc2)CC3)c1	i
17	Cc1cc(NS(=O)(=O)c2ccc(NC(=O)c3cc(Cl)ccc3[N+](=O)[O-])cc2)no1	i
18	O=C(Cc1c(F)cccc1Cl)N1CC(c2nc(-c3ccccc3)no2)C1	i
19	CCc1ccc(-n2nnc(C(=O)NCc3ccccc3Cl)c2-c2ccncc2)cc1	i
20	Cc1cc(=O)n(CC(=O)Nc2cc(C)on2)c(N2CCN(c3ccccc3)CC2)n1	i
21	O=C(/C=C/c1cccs1)N(CCN1CCOCC1)c1nc2ccc(Cl)cc2s1	i
22	O=C(NCC(O)c1ccoc1)c1ccccn1 (centres undefined)	i
23	COc1cc2c(cc1[N+](=O)[O-])OC(C)C2 (centres undefined)	i
24	O=C(Cn1c(=O)oc2ccccc21)NCC#CCOc1cccc(C(F)(F)F)c1	i
25	Cc1cc(NC(=O)CCOc2ccccc2)n(-c2nc3ccccc3s2)n1	i
26	Cc1cc(OCC(=O)Nc2cccc(C)c2C)nc(N2CCC(C)CC2)n1	i
27	O=C(Nc1nc2c(s1)CN(C(=O)c1ccccc1Br)CC2)NC1CCCC1	i
28	COc1ccc(-c2cc(SCC(=O)Nc3cccc(C(C)=O)c3)ncn2)cc1	i
29	CCCCNC(=O)NS(=O)(=O)c1ccc(C)cc1	i
30	Cn1c(-c2ccccn2)nn(CCNC(=O)c2ccc3ccccc3n2)c1=O	i
31	COc1cccc(N2CC(C)Cn3c2nc2c3c(=O)n(C)c(=O)n2C)c1 (centres undefined)	i
32	COc1ccc(-c2[nH]c(=S)ncc2-c2ccccc2)c(O)c1	i
33	Cc1cccc(CN2CC(c3noc(-c4ccc[nH]c4=O)n3)CC2=O)c1 (centres undefined)	i
34	CCC(C(=O)Nc1cc(C2CC2)nn1-c1nc(C(C)C)cc(=O)[nH]1)c1ccccc1 (centres undefined)	i
35	Cc1ccc(N2CCCn3c2nc2c3c(=O)n(CCN3CCOCC3)c(=O)n2C)cc1C	i
36	CCCc1nnsc1C(=O)NCC1(c2cccs2)CCCC1	i
37	Cc1cc2nc(COc3ccc(F)cc3)[nH]c2cc1C	i
38	O=C(NCC1CCN(C(=O)Oc2ccccc2)CC1)c1ccco1	i
39	O=C(Nc1nnc(-c2cc3ccccc3o2)o1)c1cnc2ccccc2n1	i
40	O=C(NCCC1=CCCCC1)C(=O)NCC1CCN(C2CCCC2)CC1	i
41	O=C(/C=C/c1ccccc1Cl)Nc1ccc2c(c1)CN(C(=O)C1CC1)CC2	i
42	COc1ccc(Nc2nnc(C)c(=O)[nH]2)cc1OC	i
43	COc1ccc2cc(CCNC(=O)c3ccc(S(=O)(=O)N(C)C)cc3)c(=O)[nH]c2c1	i
44	Cc1cc(Nc2ccc(NC(=O)/C=C/c3ccco3)cc2)nc(N2CCCC2)n1	i
45	C=C(C)C(=O)O[C@H]1C[C@@](C)(O)[C@]2(O)CC[C@](C)(C=C3OC(=O)C(COC)=C31)O2	i
46	COCCN(Cc1ccncc1)C(=O)c1cc(C2CC2)on1	i
47	O=S(=O)(c1cccs1)N1CCC(Oc2nc3ccccc3s2)CC1	i
48	CCc1ccc(S(=O)(=O)c2nnn3c2nc(N2CCN(C)CC2)c2sccc23)cc1	i
49	CCOc1ccc(CC(=O)NCC#CCN2CCCCC2)cc1	i
50	COCCn1cnc2c(-c3ccccc3)cn(CC(=O)N3CCN(c4ccccc4)CC3)c2c1=O	i
51	Cc1cc(C)n(-c2ncc(NC(=O)Nc3ccc(Cl)c(C(F)(F)F)c3)cn2)n1	i
52	O=C(c1ccc(CNS(=O)(=O)c2ccccc2F)cc1)N1CCC(Cc2ccccc2)CC1	i
53	Nc1nonc1-c1nc2cnccc2n1C1CCCCC1	i
54	CCc1nc(-c2ccc(N3CCN(C(=O)c4cccnc4OC)CC3)nc2)no1	i
55	COc1ccc(CCNC(=O)NCC2CCN(C(C)C)CC2)cc1	i
56	C=C(C)Cn1c(N2CCC(C(N)=O)CC2)nc2c1c(=O)n(C)c(=O)n2C	i
57	COc1ccc(NC(=O)Cn2cccc(S(=O)(=O)N3CCCCC3)c2=O)cc1OC	i
58	CCOc1ccc(CC(=O)NC2CCN(CCOC)CC2)cc1	i
59	C/C(=C/CC(COC1OC(CO)C(O)C(O)C1O)C(C)C(=O)O)CC1CC(C)C(=O)O1 (centres undefined)	i
60	O=C(CN1CCC(Cn2c(COc3ccccc3)nc3ccccc32)CC1)Nc1nncs1	i
61	CCOc1ccc(NC(=O)Cn2[nH]c(-c3ccc(C)cc3)cc2=O)cc1	i
62	COc1cc2nc(=S)n3[nH]c(COc4ccc(Cl)cc4)nc3c2cc1OC	i
63	Cc1ccc(-n2c(-c3ccccc3)cn3c4c(=O)n(CCN5CCOCC5)c(=O)n(C)c4nc23)cc1C	i
64	COC(=O)Cn1c(=O)c2c(nc3n2CC(C)CN3c2ccc(OC)cc2)n(C)c1=O (centres undefined)	i
65	COc1ccccc1-n1nnc(C(=O)N2CCN(c3ncccn3)CC2)c1-c1ccccn1	i
66	CCn1c(-c2nc(C(=O)N3CCNC(=O)C3)cs2)cc2ccccc21	i
67	Cc1cc(F)ccc1-n1c(=O)c2sccc2n(Cc2ccccc2C#N)c1=O	i
68	COc1ccccc1-n1nnc(C(=O)NC2CC(C)(C)NC(C)(C)C2)c1C	i
69	COc1ccc(OCC(=O)Nc2c3c(nn2CC(=O)NCc2ccco2)CSC3)cc1	i
70	Cc1ccc(NC(=O)CSc2c(CC(C)C)cnc3c2c(=O)n(C)c(=O)n3C)cc1	i
71	O=[N+]([O-])c1ccccc1Cc1nc2ccccc2[nH]1	i
72	COc1ccc(NC(=O)N2CCN(c3ccc(-n4cccc4)nn3)CC2)c(C)c1	i
73	O=C(c1ccc(Cn2ccnc2)cc1)N1CCC(c2nnc(C3CC3)o2)CC1	i
74	COc1ccc(-n2nnc(C(=O)NC3CCS(=O)(=O)C3)n2)cc1 (centres undefined)	i
75	O=C1CCc2ccc(OCc3cccc(C(F)(F)F)c3)cc21	i

(continued)
nr	molecule	GIRK2 act
76	COC(=O)c1ccc(S(=O)(=O)NC(C)Cc2ccco2)cc1 (centres undefined)	i
77	Cc1cc(C)nc(Nc2nc(CC(=O)NCc3ccccc3OC(F)(F)F)cs2)n1	i
78	CCCn1c(=O)c2c(nc3n(-c4ccccc4OC)c(C)c(C)n23)n(C)c1=O	i
79	COc1ccccc1NC(=O)NCCn1nc(C2CC2)n(-c2ccccc2)c1=O	i
80	O=C(CSc1nccc(N2CCCC2)n1)Nc1ccc(Cl)cc1C(F)(F)F	i
81	Cc1n[nH]c(C)c1S(=O)(=O)N1CCC(c2nnc(-c3ccco3)s2)CC1	i
82	O=S(=O)(NCC1CCN(S(=O)(=O)c2cccnc2)CC1)c1ccc(F)c(Cl)c1	i
83	CCCCC(=O)N1CCN(Cc2nnnn2-c2ccc(F)cc2)CC1	i
84	COc1ccc(NC(=O)N(c2ccccc2)c2ccccc2)cc1	i
85	O=C(CN1CC(c2nc(C3CC3)no2)C1)NCCc1ccccc1	i
86	COc1ccc(C(=O)NC(c2nc3ccccc3[nH]2)C(C)C)cc1 (centres undefined)	i
87	COc1ccc(C)cc1-n1c(C)c(C)n2c3c(=O)n(CC(N)=O)c(=O)n(C)c3nc12	i
88	N#Cc1ccc2[nH]cc(S(=O)(=O)c3cc(F)cc(F)c3)c(=O)c2c1	i
89	O=C(c1ccc(F)cc1)N1CCN(Cc2nnnn2-c2cccc(F)c2)CC1	i
90	COc1cccc(COc2coc(C(=O)NCc3ccccc3Cl)cc2=O)c1	i
91	COc1nn(C)cc1C(=O)Nc1nnc(-c2ccco2)o1	i
92	COc1cc2c(cc1OC)CN(C(=O)c1cc(-c3ccc(F)cc3)c[nH]1)CC2	i
93	O=C1COc2ccc(-c3csc(NC(=O)c4ccc5c(c4)OCO5)n3)cc2N1	i
94	COc1ccc(CC(C)(O)CNC(=O)COc2ccc(Cl)cc2Cl)cc1 (centres undefined)	i
95	COc1ccc(C)cc1N1CCn2c1nc1c2c(=O)n(CC(=O)C(C)(C)C)c(=O)n1C	i
96	COc1ccccc1N1CCN(CCNC(=O)C2CCCC2)CC1	i
97	Cc1c(C(=O)Nc2nc3c(s2)COCC3)cnn1-c1ccccc1	i
98	CN(C)S(=O)(=O)NCC(Cc1cccc(F)c1)N1CCNC1=O (centres undefined)	i
99	CCOC(=O)c1cnn(-c2ccc(C(=O)Nc3ccc(Br)cc3)cn2)c1N	i
100	COc1ccc(OC)c(NC(=O)COc2cc(C)nc(N3CCCC3)n2)c1	i
101	O=C(Nc1ccc2cn[nH]c2c1)C1COc2ccccc2O1 (centres undefined)	i
102	C=CCSc1nnc(-c2ccccc2NC(=O)c2ccc(F)cc2)o1	i
103	Cc1ccc(N2CCN(CC(=O)NCc3nc(-c4ccccc4)no3)C2=O)cc1	i
104	COc1cc(NC(=O)Cc2c(C)noc2C)ncn1	i
105	O=C(CN1CCN(c2ccc3c(c2)OCO3)C1=O)Nc1nccs1	i

Some of the entries above in a different format:
(105) O=C(CN1CCN(c2ccc3c(c2)OCO3)C1=O)Nc1nccs1
- GIRK2 act: i
(91) COc1nn(C)cc1C(=O)Nc1nnc(-c2ccco2)o1
- GIRK2 act: i
(101) O=C(Nc1ccc2cn[nH]c2c1)C1COc2ccccc2O1 (centres undefined)
- GIRK2 act: i
(103) Cc1ccc(N2CCN(CC(=O)NCc3nc(-c4ccccc4)no3)C2=O)cc1
- GIRK2 act: i

Next compounds.
nr	molecule	GIRK2 act
106	Nc1nc(NCCCn2ccnc2)ncc1[N+](=O)[O-]	i
107	CCc1ccccc1NC(=O)Cn1cnc2c(-c3ccc(F)cc3)nsc2c1=O	i
108	O=S(=O)(NCCOc1ccc2c(c1)OCO2)c1cc(C(F)(F)F)ccc1Cl	i
109	COCCn1c(-c2ccccc2Cl)nc2c(c(=O)c3ccccc3n2C)c1=O	i
110	COc1ccccc1NC(=O)c1cn(Cc2ccc(NC(=O)c3ccc(Cl)cc3)cc2)cn1	i
111	COc1cccc(N2C(=O)/C(=C/c3ccc(OC)c(OC)c3)SC2=S)c1	i
112	Cc1ccc(NC(=O)CSc2ccc(-n3cnc(-c4ccccc4)c3)nn2)cc1	i
113	O=c1cc(CN2CCC3(CC2)OCCO3)c2cc(O)c(-c3ccccc3)cc2o1	i
114	Cc1ccc(-n2nnc(-c3nc(C)c(C(=O)N4CCSCC4)s3)c2C)cc1C	i
115	CCc1ccc(S(=O)(=O)NCC#CCN2CCOCC2)s1	i
116	O=C(/C=C/c1ccccc1)N(CCn1cccn1)c1nc2ccccc2s1	i
117	O=C1CC(c2nc3ccccc3n2Cc2ccccc2Cl)CN1c1ccccc1 (centres undefined)	i
118	C#CC(C)(CC)OCC(O)CN1CC(C)CC(C)C1 (centres undefined)	i
119	CC(C)c1cc(=O)n(CC(=O)Nc2cc(N3CCCC3)ncn2)cn1	i
120	CCCCN1CC(c2nc3ccccc3n2CC2CCCCC2)CC1=O (centres undefined)	i

Gathered by group, the entries above containing bromine.
nr	molecule	GIRK2 act
27	O=C(Nc1nc2c(s1)CN(C(=O)c1ccccc1Br)CC2)NC1CCCC1	i
99	CCOC(=O)c1cnn(-c2ccc(C(=O)Nc3ccc(Br)cc3)cn2)c1N	i

New compounds follow:
nr	molecule	GIRK2 act
121	O=C(NCC#CCOc1ccc2c(c1)OCO2)Nc1ccccc1	i
122	O=C(CSc1nc2ccccc2o1)N1CCC(Oc2ccc(Cl)cn2)CC1	i
123	Cc1cccc(-c2nsc3c(=O)n(CC(=O)Nc4c(C)cc(C)cc4C)cnc23)c1	i
124	O=C(Nc1cc(OCc2ccc3c(c2)OCO3)ncn1)c1cncc(Br)c1	i
125	COc1nn(C)cc1C(=O)NCC1(O)CCOc2ccccc21 (centres undefined)	i
126	Cn1ccnc1SCC1CCN(C(=O)CN2C(=O)CCC2=O)CC1	i
127	Cc1cc(N2C(=O)CCS2(=O)=O)ccc1S(=O)(=O)N1CCN(C)CC1	i
128	CC(C)(CCCCCCCCCCC(C)(C)CC(=O)O)CC(=O)O	i
129	COc1ccccc1CNC(=O)C(=O)Nc1c(C)cc(C)cc1C	i
130	CCS(=O)(=O)c1ccc(OC)c(Nc2ncc(-c3cccc(C(C)=O)c3)o2)c1	i

Not all compounds are listed; count on the stated rates, not on these rows.
